# Screens deposited in PubChem BioAssay by several laboratories.
# RGS16-Gao: RGS16-Galphao interaction regulator (human); bead-based flow cytometry RGS16-Galphao binding, fluorescence; actives lie on both sides; binding response (% of control), % at 10 µM; 0.38% of 220,000 active;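 active = below 25% or above 175%, edge rows of some plates excepted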;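 note: Galphao activated by GDP with aluminum fluoride before binding; 100% = wells without compound and 0% = beads without RGS; some results beyond the cut were filed as inactive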
# Target sequence (O15492 whole entry, looked up): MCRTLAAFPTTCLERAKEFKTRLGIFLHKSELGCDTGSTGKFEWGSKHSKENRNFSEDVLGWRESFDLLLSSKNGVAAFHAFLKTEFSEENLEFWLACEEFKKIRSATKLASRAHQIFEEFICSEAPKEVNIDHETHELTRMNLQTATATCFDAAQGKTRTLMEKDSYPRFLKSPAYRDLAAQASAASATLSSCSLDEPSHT
# Target sequence (P09471 whole entry, looked up): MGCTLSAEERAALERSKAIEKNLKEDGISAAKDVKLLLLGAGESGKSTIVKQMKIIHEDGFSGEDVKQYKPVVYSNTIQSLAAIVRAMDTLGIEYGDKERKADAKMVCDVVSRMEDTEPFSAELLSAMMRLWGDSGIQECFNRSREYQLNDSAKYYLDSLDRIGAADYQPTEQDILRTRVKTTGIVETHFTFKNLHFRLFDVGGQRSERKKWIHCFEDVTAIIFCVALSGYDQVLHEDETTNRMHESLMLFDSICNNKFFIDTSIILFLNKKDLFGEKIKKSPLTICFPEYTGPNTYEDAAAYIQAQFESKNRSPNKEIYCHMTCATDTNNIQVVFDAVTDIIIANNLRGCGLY
# PKD1 kinase inh: PKD1 (human) kinase inhibition | PKD1 kinase fluorescence polarization assay | inhibition, %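 (about 10 µM by stock and volumes)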 | 0.056% of 200,000 active | Q15139;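 active = inhibition of 50% or more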;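 note: controls were vehicle for no effect and a reference inhibitor for full effect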
# HSV augment: increases HSV replication in cells; HSV replication augmentation in cells, fold increase; maximum fold increase; 0.005% of 220,000 active; AID 1956;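 active = peak rise of 1.5-fold or more in the series; tested in PC3 cells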;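 note: first round at 10 µM; read as green reporter fluorescence; hits show the peak of a series up to 25 µM; 1 = signal of infected wells without compound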
# Insulin prom inh: TRM-6 insulin promoter activity inhibition. 0.9% of 130,000 active. TRM-6 cells (human fetal islet line), insulin promoter-eGFP reporter, imaging; reporter expression induced with tamoxifen. inhibition, % at 2 µM;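 active = inhibition above the mean plus 3 SD, with well images judged a real hit on visual review, cut at about 60% in these data, passing the limit was not always enough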
# GALR2 ag: activates the human galanin receptor 2; O43603; GALR2-expressing cells, agonist activation read-out; activation, %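 (tested at 5 µM)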; 0.48% of 140,000 active;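 active = above mean plus 3 SD of all compounds, about 5% in these data, not always enough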;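 note: 0% = vehicle buffer wells and 100% = reference agonist at full effect; tested in CHO reporter cells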
# Target sequence (O43603 whole entry, looked up): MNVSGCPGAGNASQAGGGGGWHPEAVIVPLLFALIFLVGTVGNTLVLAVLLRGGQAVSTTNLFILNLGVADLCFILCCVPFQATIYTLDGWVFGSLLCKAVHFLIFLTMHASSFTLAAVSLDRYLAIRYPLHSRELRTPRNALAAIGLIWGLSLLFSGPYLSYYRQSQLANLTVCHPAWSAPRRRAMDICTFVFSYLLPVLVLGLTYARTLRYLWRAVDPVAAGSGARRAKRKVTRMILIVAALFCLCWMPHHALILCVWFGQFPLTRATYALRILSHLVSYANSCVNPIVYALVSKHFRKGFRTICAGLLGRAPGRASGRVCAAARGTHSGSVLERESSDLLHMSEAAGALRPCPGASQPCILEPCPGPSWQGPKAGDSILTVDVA
# Insulin prom inh cell count: recorded beside Insulin prom inh, whose call it bears; normalized cell count, %; measured here: cell count, toxicity; reference of the scale not given here;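 cells exposed to compound for 48 h; stained nuclei by imaging scaled within each plate; lower means fewer cells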
# HSV augment primary fold: also measured in HSV augment; calls as there; fold increase; compound at 10 µM; measured here: primary screen fold increase 10 uM; tested in PC3 cells;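 GFP signal in the first replicate; 1 = infected wells without compound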
# * = called active by the depositor; i = inactive; nt = no result given; & = joins results of further samples. Compounds were not picked by outcome; 1.3% or so of the library scored in one or more.
# Below each compound – RGS16-Gao, PKD1 kinase inh, HSV augment, HSV augment primary fold, Insulin prom inh, Insulin prom inh cell count, GALR2 ag
Cc1ccc2nc3c(c(Nc4ccccc4)c2c1)CCC3
 : 99, nt, i, 0.81, nt, nt, nt
N#Cc1ccc2c(c1)nc1ccccn12
 : 103, 0, i, 0.9, 79*, 101*, nt
CCNc1nc(NC(C)C)nc(N(n2cnnc2)S(=O)(=O)c2ccc(C)cc2)n1
 : 99, -3, i, 1, 37, 98, -1.0
Cc1ccc(-c2nc3ccccc3o2)cc1NC(=O)c1ccc2c(c1)OCO2
 : 102, -7, i, 0.83, -21, 175, -3.4
Cc1c(C(=O)OCCOC(C)C)[nH]c2c1C(=O)CC(C)(C)C2
 : 102, -16, i, 0.97, nt, nt, -0.5
CC(=O)Oc1ccccc1N(C(C)=O)S(=O)(=O)c1cccc([N+](=O)[O-])c1
 : 97, -8, i, 1.2, nt, nt, nt
COc1ccccc1NC(=O)CN1CCN(c2ccc(Cl)cc2)CC1
 : 102, 7, i, 0.97, 18, 113, -1.8
O=C(CCC(=O)N1CCCc2ccccc21)N1CCN(S(=O)(=O)c2ccccc2)CC1
 : 98, -12, i, 0.85, -93, 86, -0.4
COC(=O)c1cc(C(=O)N2CCN(c3cccc(C)c3C)CC2)cc([N+](=O)[O-])c1
 : 106, 6, i, 0.66, nt, nt, nt
CN(C)CCCN(C(=O)CCOc1ccccc1)c1nc2ccc(F)cc2s1
 : 105, 2, i, 0.71, 6, 23, nt
N/C(=N\OC(=O)Cc1ccccc1[N+](=O)[O-])c1ccc(Br)cc1
 : 101, -2, i, 0.92, nt, nt, nt
CC(C)COC(=O)c1ccccc1OC(=O)c1ccncc1
 : 107, -2, i, 0.86, 8, 67, nt
COc1ccc(Cc2nnnn2CC(=O)O)cc1
 : 99, -11, i, 0.85, nt, nt, -2.8
Cc1nc(NC(=O)C2CC2)sc1C
 : 106, -9, i, 1, 8, 133, 0.5
CSc1ccc(CN(C)C(C)C(=O)NCc2ccccc2)cc1 (centres undefined)
 : 99, -2, i, 1, nt, nt, nt
O=C(NCc1cccc(CNC(=O)C(=O)NCC2CCCO2)c1)C(=O)NCC1CCCO1 (centres undefined)
 : 109, -6, i, 0.95, nt, nt, nt
NC(=O)Nc1cc(Cl)ccc1Cl
 : 100, nt, i, 1, nt, nt, nt
CCN(CC)S(=O)(=O)c1cccc(-c2csc(C)n2)c1
 : 97, nt, i, 1.2, nt, nt, nt
O=C(O)c1ccc(N2C(=O)c3ccc(C(=O)c4cccc([N+](=O)[O-])c4)cc3C2=O)cc1
 : 98, -2, i, 1.1, nt, nt, nt
C/C(CCC(C)C)=N\NS(=O)(=O)c1ccc(C)c([N+](=O)[O-])c1
 : 97, nt, i, 1.1, nt, nt, nt
c1ccc(N2N=C(c3cccs3)CC2c2ccco2)cc1 (centres undefined)
 : 105, -6, i, 1, nt, nt, 57*
COc1ccc(OC2C(=O)N(c3ccc(C)c(C)c3)C2c2ccc(OC)c(OC)c2)cc1 (centres undefined)
 : 105, -7, i, 0.98, -15, 87, -1.3
O=C(c1cc(F)c(F)cc1Cl)N1CCOCC1
 : 107, -3, i, 1, nt, nt, -1.3
CNC(=O)NC(=O)CSc1cccc(C(F)(F)F)c1
 : 101, -5, i, 0.88, nt, nt, 0.0
O=C1NC(c2ccco2)Nc2ccccc21 (centres undefined)
 : 104, -5, i, 0.93, 38, 146, -0.1
CCCCCCCCCC(=O)N1c2ccccc2NC(=O)C1CC(=O)Nc1ccc(C(=O)O)cc1 (centres undefined)
 : 102, nt, i, 1.1, nt, nt, nt
Cc1ccc(-c2cc(C(F)(F)F)n3ncc(C(=O)N4CCN(C)CC4)c3n2)cc1
 : 105, -11, i, 0.93, nt, nt, -0.8
COc1ccccc1-c1csc(NC(=O)c2ccc(N3C(=O)CCC3=O)cc2)n1
 : 101, 12, i, 1.1, nt, nt, nt
CC1NC(=O)N(C)[C@@H]2NC(=O)N(C)C(c3ccc([N+](=O)[O-])cc3)[C@@H]12 (some centres undefined)
 : 102, -11, i, 0.86, nt, nt, nt
O=C(Nc1ccccc1C(=O)N1CCOCC1)c1ccc(Cl)cc1
 : 93, 3, i, 1, -18, 110, nt

# Complete entries as entered above. Screens in order: RGS16-Gao | PKD1 kinase inh | HSV augment | HSV augment primary fold | Insulin prom inh | Insulin prom inh cell count | GALR2 ag
# Profile of CC(C)COC(=O)c1ccccc1OC(=O)c1ccncc1 → 107 | -2 | i | 0.86 | 8 | 67 | nt
# Profile of O=C(Nc1ccccc1C(=O)N1CCOCC1)c1ccc(Cl)cc1 → 93 | 3 | i | 1 | -18 | 110 | nt
# Profile of NC(=O)Nc1cc(Cl)ccc1Cl → 100 | nt | i | 1 | nt | nt | nt
# Profile of O=C(CCC(=O)N1CCCc2ccccc21)N1CCN(S(=O)(=O)c2ccccc2)CC1 → 98 | -12 | i | 0.85 | -93 | 86 | -0.4
# Profile of O=C1NC(c2ccco2)Nc2ccccc21 (centres undefined) → 104 | -5 | i | 0.93 | 38 | 146 | -0.1

# Following part
# Below each compound – RGS16-Gao, PKD1 kinase inh, HSV augment, HSV augment primary fold, Insulin prom inh, Insulin prom inh cell count, GALR2 ag
Cc1noc(NS(=O)(=O)c2ccc(N/C=C/C(=O)c3cccnc3)cc2)c1C
 : 96, -9, i, 1.1, nt, nt, -1.1
CCOC(=O)c1c(NC(=O)CSc2nc(C)cc(C)c2C#N)sc(C(C)=O)c1C
 : 107, 15, nt, nt, nt, nt, 0.2
O=C(Cn1nnc(-c2ccc3c(c2)OCO3)n1)NCc1ccco1
 : 99, -4, i, 1.1, 31, 79, -0.7
C/C(CC(=O)Nc1ccc(F)cc1)=N\NC(=O)c1ccccn1
 : 141, -4, i, 0.91, 36, 138, nt
O=C(N/N=C/c1ccc(Cl)c([N+](=O)[O-])c1)c1cnccn1
 : 97, -5, i, 0.9, -97, 121, -1.0
S=C(NCCc1ccccc1)N1CCc2ccccc2C1
 : 104, -4, i, 1, -50, 50, nt
CCOC(=O)c1c(C)nc2c(c1-c1ccc(Cl)cc1)C(=O)CC(C)(C)C2
 : 105, -5, i, 0.95, nt, nt, -0.2
Cc1nnc(SCC(=O)NCc2ccco2)n1Cc1ccccc1
 : 105, -1, i, 0.83, -7, 68, -0.3
C/C=C/c1ccc(OCCOCCOc2cccc3cccnc23)c(OC)c1
 : 72, 0, i, 0.9, -87, 40, -0.8
O=C(Nc1ccccc1)N1N=C(c2ccc(F)cc2)CC1c1ccc(F)cc1 (centres undefined)
 : 110, -15, i, 1.1, 62, 68, 0.4
CCCn1c(SCC(=O)c2ccc3c(c2)NC(=O)CO3)nc2ccccc21
 : 98, -7, i, 0.73, -13, 71, 3.3
CCNS(=O)(=O)c1ccc(C)c(-n2cnnn2)c1C
 : 68, 1, i, 1, -389, 42, -1.3
COc1ccc(C2(O)CC3CCC(C2)N3c2nc(C)cc(C)c2C#N)cc1 (centres undefined)
 : 133, -6, i, 0.84, -7, 157, -1.1
CC(=O)Nc1ccc(/C=C2/Sc3ccccc3C2=O)cc1
 : 121, 1, i, 0.94, nt, nt, nt
CC(C)(C)NC(=O)c1cccnc1Sc1ccccc1
 : 102, -4, i, 1, nt, nt, nt
CC1=C(C(=O)N(C)C)C(c2cccs2)NC(=O)N1 (centres undefined)
 : 100, 3, i, 1.2, -481, 51, -0.1
COc1ccc2c(C(=O)CCl)c[nH]c2c1
 : 98, nt, i, 0.98, nt, nt, nt
CCOC(=O)c1c(NC(=O)c2csc(C)c2)sc(C(C)=O)c1C
 : nt, -6, nt, nt, 25, 100, -2.1
Cc1[nH]nc2c1C(C(C)C)C(C#N)=C(N)O2 (centres undefined)
 : 99, 1, i, 0.84, nt, nt, -1.1
COc1ccc(-c2[nH]ncc2CN2CCN(Cc3cccs3)CC2)c(F)c1
 : 105, 3, i, 0.87, nt, nt, nt
Oc1c(Cl)cc(Cl)cc1C1=NNC(c2ccc(Cl)cc2)C1 (centres undefined)
 : 97, 0, i, 0.93, -30, 113, nt
COc1ccc(-c2cc(C(F)(F)F)nc(NCc3cccnc3)n2)cc1
 : 103, 0, i, 0.98, -6, 107, -2.5
COc1ccccc1N1CCN(/N=C/C=C\c2ccccc2[N+](=O)[O-])CC1
 : 102, -12, i, 0.95, -39, 126, nt
CC(N=C1NC(C)(C)Cc2ccccc21)C(=O)O (centres undefined)
 : 99, 1, i, 0.96, nt, nt, nt
CCOC(=O)CCCn1ncn2c(cc3occc32)c1=O
 : 73, -7, i, 0.75, -7, 73, -1.4
COCCNC(=S)Nc1ccc2nc(N3CCCC3)cc(C)c2c1
 : 106, 3, i, 0.97, -8, 108, 1.9
CCCCNCc1ccc(OCc2ccc(Cl)nc2)c(OC)c1
 : 98, nt, i, 1.1, nt, nt, nt
Cc1cc(C)nc(/N=C2\NC(=O)CC(C(=O)O)N2c2ccc(C)c(C)c2)n1 (centres undefined)
 : 90, -8, i, 0.9, nt, nt, nt
Cc1ccc(C)c(N2CCN(C(=O)c3cn(C)c4ccc(S(=O)(=O)N(C)C)cc4c3=O)CC2)c1
 : 100, 2, i, 1.1, nt, nt, -1.5
CCN1CC(=O)Nc2cc(S(=O)(=O)N3CCOCC3)ccc21
 : 95, -3, i, 0.96, 31, 148, nt
N#Cc1c(N)nc(SCC(=O)NCc2ccc3c(c2)OCO3)c(C#N)c1-c1cccs1
 : 102, -12, i, 1, nt, nt, 0.8
O=C(Nc1ccccc1N1CCN(c2ccccc2)CC1)c1ccccc1
 : 98, 4, i, 0.99, nt, nt, nt
CC(NC(=O)Cc1ccc(F)cc1)c1ccccc1 (centres undefined)
 : 96, 9, i, 0.91, 37, 97, -0.2
Nc1sc2c(c1C(=O)NCCc1ccccc1)CCC2
 : 108, -8, i, 1.2, -7, 140, nt
O=C(CCN1Cc2ccccc2C1)c1ccc2c(c1)OCCO2
 : 99, -16, i, 0.97, -23, 74, -1.1
Cc1cc2ncn(/N=C/c3cc(Br)ccc3O)c2cc1C
 : 97, 2, i, 0.79, nt, nt, -1.4
COc1ccc(-c2nnc(SCC(=O)NC3CCCc4ccccc43)n2N)cc1 (centres undefined)
 : 105, 3, i, 0.89, 44, 136, -1.8
CCC1CCCCN1C/C=C/c1ccccc1[N+](=O)[O-] (centres undefined)
 : 102, -7, i, 1, nt, nt, 0.2
O=C(NCc1nc2ccccc2[nH]1)c1ccc(S(=O)(=O)N2CCCC2)cc1
 : 96, 2, i, 0.85, -233, 64, nt
COc1cccc(N(C(=O)c2ccn[nH]2)C2(C(=O)Nc3c(C)cccc3C)CCCCC2)c1
 : 106, -9, i, 1, 46, 36, -0.9
Cn1cc(S(=O)(=O)NCC2CCCO2)c(=O)n(C)c1=O (centres undefined)
 : 97, nt, i, 0.99, nt, nt, nt
COc1ccc(CNC(=O)CCSCc2cccc(Cl)c2)cc1
 : 188, -6, i, 1.1, 7, 103, 0.1
CCOC(=O)c1c(NC(C)=O)sc2c(OCC(O)CNC(C)(C)C)c(Br)ccc12 (centres undefined)
 : 109, 3, i, 0.61, nt, nt, nt
O=C(CNCc1ccncc1)Nc1cc(S(=O)(=O)N2CCCCC2)ccc1Cl
 : 120, -2, i, 0.93, nt, nt, nt
O=C(Nc1ccc(Cc2ccncc2)cc1)c1ccc(Cl)c([N+](=O)[O-])c1
 : nt, -6, i, 0.9, 17, 127, -2.5
O=[N+]([O-])c1ccc(/C=C/c2ccc3ccccc3n2)cc1
 : 106, 1, i, 0.93, -21, 132, nt
O=C(NCCc1ccccc1)C1CCC(Cn2c(=O)c3ccccc3n(Cc3cccc(F)c3)c2=O)CC1 (centres undefined)
 : 96, -5, i, 1, nt, nt, -0.4
CCCCNc1nc(NC)nc(Cl)c1SC
 : 105, 0, i, 0.99, nt, nt, nt
CCN(CC)CCSc1nnc2c3cc(C)ccc3n(Cc3ccccc3)c2n1
 : 110, nt, i, 0.55, nt, nt, nt
Cn1c(SCC(=O)NCCNC(=O)CSc2nnc(C(F)(F)F)n2C)nnc1C(F)(F)F
 : 101, 5, i, 0.97, -16, 115, -0.4
Cc1cc(Cl)ccc1OCC(=O)NCC(=O)N/N=C/c1ccco1
 : 104, -5, i, 0.9, 36, 149, nt
COc1ccc(CCc2nc(C)ccc2O)cc1
 : 118&101, 4&0, i, 1.1&0.76, 89*, 211*, -0.9&-1.1

# An excerpt from above, showing only HSV augment primary fold:
structure | HSV augment primary fold
COc1ccc(CNC(=O)CCSCc2cccc(Cl)c2)cc1 | 1.1
CCOC(=O)c1c(NC(C)=O)sc2c(OCC(O)CNC(C)(C)C)c(Br)ccc12 (centres undefined) | 0.61
O=C(CNCc1ccncc1)Nc1cc(S(=O)(=O)N2CCCCC2)ccc1Cl | 0.93
